Compound activity (PubChem BioAssay)
MLL AF4-AF9 inh: MLL-AF4/AF9 protein interaction inhibition | AlphaScreen, biotin-AF4 peptide binding to FLAG-AF9 | inhibition, % at 10 µM | 350,000 tested, 0.47% active;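 active = every replicate reaching a set inhibition limit, whatever the replicate mean, cut at about 25% in these data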;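 note: 0% = plate neutral control median and 100% = total signal loss; the record names both 10 and 1 µM as test concentration; the first replicate is given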
Target sequence (P42568 whole entry, looked up): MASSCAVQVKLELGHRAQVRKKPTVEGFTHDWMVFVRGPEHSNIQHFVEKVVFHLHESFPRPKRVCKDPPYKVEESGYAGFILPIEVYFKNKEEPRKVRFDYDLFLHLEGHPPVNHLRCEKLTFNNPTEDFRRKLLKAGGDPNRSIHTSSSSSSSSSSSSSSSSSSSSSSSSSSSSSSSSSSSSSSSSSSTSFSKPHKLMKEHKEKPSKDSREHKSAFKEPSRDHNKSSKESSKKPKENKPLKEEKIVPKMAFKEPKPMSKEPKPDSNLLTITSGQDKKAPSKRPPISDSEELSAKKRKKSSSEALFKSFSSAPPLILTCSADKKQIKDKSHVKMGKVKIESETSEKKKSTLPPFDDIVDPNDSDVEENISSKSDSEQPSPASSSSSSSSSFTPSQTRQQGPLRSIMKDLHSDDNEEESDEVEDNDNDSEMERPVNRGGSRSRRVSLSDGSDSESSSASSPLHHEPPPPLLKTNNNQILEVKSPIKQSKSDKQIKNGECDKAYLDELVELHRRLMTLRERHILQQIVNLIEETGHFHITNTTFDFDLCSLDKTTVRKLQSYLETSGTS
FGF22 binding: FGF22 (human) thermal shift binding; Q9HCT0; 340,000 tested, 1.5% active; calls only at 9.99 µM; recombinant FGF22 thermal shift, SYPRO orange fluorescence; percent of sucrose octasulfate shift, DMSO zero; AID 651658;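 active = melting point raised past a set limit in the mean and every replicate; three in four hits are not shown here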
ALR H2O2 inh: human ALR oxidase inhibition via reduced H2O2; 290,000 tested, 3.8% active; P55789; AID 485317; purified ALR, DTT oxidation, H2O2 HRP-luminol luminescence; inhibition, % (test concentration not listed);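 active = mean and each replicate at 75% or more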;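 note: stock transfer was 7.5 nL into about 7.5 µL; 0% = neutral wells and 100% = wells with inactivated enzyme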
Vif A3G: inhibitors of Vif binding to APOBEC3G peptide, primary screen, biochemical, TR-FRET, GST-Vif 1-94, biotin-A3G peptide, dose response retest (AID 1117319). TR-FRET GST-Vif / biotin-A3G peptide binding; higher % means a stronger effect; test concentration not given here; strong numbers were not always called active. inhibition, %; hits with a dose series show IC50 in µM. 260,000 tested, 0.57% active;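 active = above the screen mean plus three standard deviations and confirmed in dose response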;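 note: Vif residues 1-94 fused to GST binding biotinylated APOBEC3G peptide 110-148; 0% = full assay without inhibitor and 100% = GST in place of GST-Vif; retest series ran down from 100 µM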
Ecoli rRNA inh: inhibits bacterial ribosomal RNA function over humanized ribosomes | 350,000 tested, 1.6% active | GFP signal change (wild-type ribosome), % (concentration not given with the values) | E. coli WT GFP vs humanized-ribosome RFP mutants, fluorescence, 24 h; active compounds read low; DMSO median 0, no signal -100 | AID 720706;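 active = significant combined selectivity score with lowered wild-type GFP, culture density cut under 30%, mutant RFP and density less affected; inactive = any of these conditions unmet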; note: one replicate is shown; some compounds called inactive have numbers as strong as hits
Ecoli growth: inhibitors of Escherichia coli growth | OD600 absorbance (test concentration not listed) | 330,000 tested, 0.21% active | OD600, 23 h; active compounds read low;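 active = OD600 absorbance below the run mean of sample wells minus 3.6 SD, in any replicate, cut at about 0.56 in these data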;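 note: stock transfer was 300 nL into about 60 µL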
HNF4A DNA FP: change in binding of human HNF4 alpha to DNA. P41235. HNF4a-FITC DNA binding, fluorescence polarization, 1 h. activity change, % at 10 µM. 360,000 tested, 0.3% active; in the data active = activity change above about 30%, passing the limit was not always enough;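 note: controls were the assay level and a saturating level of protein; the project sought stronger binding though the title names inhibitors; some compounds called inactive have numbers as strong as hits; positive values seem to mean higher polarization but the record does not say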
Target sequence (P41235 whole entry, looked up): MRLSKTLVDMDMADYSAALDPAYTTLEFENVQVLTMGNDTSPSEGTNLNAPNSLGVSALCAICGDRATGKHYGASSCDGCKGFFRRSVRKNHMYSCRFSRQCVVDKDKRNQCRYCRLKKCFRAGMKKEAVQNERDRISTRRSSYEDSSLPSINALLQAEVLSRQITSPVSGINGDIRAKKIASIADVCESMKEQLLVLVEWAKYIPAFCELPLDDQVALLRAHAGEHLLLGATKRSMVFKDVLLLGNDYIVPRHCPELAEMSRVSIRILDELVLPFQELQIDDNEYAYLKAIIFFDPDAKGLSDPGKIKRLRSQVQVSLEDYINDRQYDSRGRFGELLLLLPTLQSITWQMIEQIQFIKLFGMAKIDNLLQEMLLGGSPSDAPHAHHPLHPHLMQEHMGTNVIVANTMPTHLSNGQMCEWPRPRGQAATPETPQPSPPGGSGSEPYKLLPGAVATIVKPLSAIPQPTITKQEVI
Ecoli rRNA inh OD600: further read-out of Ecoli rRNA inh, marked with its call; OD600 change, %; measured here: OD600 growth;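 optical density of the mix in the first replicate; 0 = DMSO median and -100 = no signal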
Ecoli rRNA inh RFP: recorded beside Ecoli rRNA inh, whose call it bears; RFP signal change, %; measured here: RFP humanized mutant strains;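 first replicate; 0 = DMSO median and -100 = no signal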
Active calls of the source: *; i = inactive; x = no result given; & = joins results of further samples.

molecule,MLL AF4-AF9 inh,FGF22 binding,ALR H2O2 inh,Vif A3G,Ecoli rRNA inh,Ecoli rRNA inh OD600,Ecoli rRNA inh RFP,Ecoli growth,HNF4A DNA FP
Cc1cccc(N=C2NC(=O)/C(=C/c3cn(C)c4ccccc34)S2)c1,x,x,-2,x,x,x,x,0.73,11
O=C(CN1C2=NCCCN2c2ccccc21)c1cccc(Br)c1,x,x,-2,x,x,x,x,0.66,-2.9
Cc1ccc(NC(=O)CSc2nnc(Cc3ccccc3)o2)c(C)c1,-3.0,i,3,x,-8,-2,10,0.7,-0.5
O=C(CSc1nccn1-c1ccc(F)cc1)NCc1ccc(F)cc1,1.3,i,-8,x,1,8,-1.3,0.71,-1.5
COc1ccc(Cl)cc1NC(=O)NCC1CCN(C(=O)OC(C)(C)C)CC1,-0.9,i,1,x,-20*,-13*,0.3*,0.71,-4.0
CC1CCC(C(=O)NC(C(=O)N2CCN(c3ccccn3)CC2)C(C)C)CC1 (centres undefined),x,x,0,-3%,15,13,0.5,0.68,-4.1
Cc1ccc(Cc2c(C3CCCCC3)nc3cc(C)c(Br)c(C)n23)cc1,-0.9,i,x,x,14,-3,5.5,x,-0.7
O=C(c1ccccc1)N1CCN(C(=S)NCCc2ccccc2)CC1,-2.0,i,-1,-8%,3,2,0.3,0.66,-1.5
O=C(Nc1ccc(Cl)c(S(=O)(=O)N2CCCCC2)c1)c1cnccn1,4.2,i,-7,-8%,x,x,x,0.67,3.6
C/C=C/c1ccc(OCCCn2cncn2)c(OC)c1,x,x,-19,-3%,x,x,x,0.69,-3.4
CN1CCN(c2nc3nonc3nc2N2CCN(C)CC2)CC1,x,x,-5,-1%,x,x,x,0.7,-1.5
O=C(Nc1ccc(Cl)cc1)N1C[C@@H]2[C@H](c3ccccc31)[C@H](CO)N2CC1CCCC1,-0.4,i,x,x,-57,-81,-15,x,x

molecule,MLL AF4-AF9 inh,FGF22 binding,ALR H2O2 inh,Vif A3G,Ecoli rRNA inh,Ecoli rRNA inh OD600,Ecoli rRNA inh RFP,Ecoli growth,HNF4A DNA FP
C[C@@H]1CN([C@@H](C)CO)C(=O)Cc2cc(NC(=O)Nc3ccccc3)ccc2O[C@@H]1CN(C)S(=O)(=O)c1cccs1,2.8,i,x,x,0,-8,0.0,x,x
CC(C)(C)c1ccc(C(=O)NCCC(=O)NCc2ccco2)cc1,x,x,-2,-1%,x,x,x,0.74,-0.8
CC(C)CCN(C(=S)NC(=O)C1CCCCC1)c1c(N)n(Cc2ccccc2)c(=O)[nH]c1=O,1.0,i,-7,x,21,18,3.4,0.69,-1.1
Cc1ccc(NC(=O)CN2C(=O)NC3(CCCc4ccccc43)C2=O)c([N+](=O)[O-])c1 (centres undefined),1.9,i,-6,-6%,-11,-6,3.5,0.74,-2.5
c1coc(CNc2ncnc3ccccc23)c1,x,x,-7,15%,14,6,-3.2,0.71,1.2
C[C@@H]1CC[C@@]2(O[C@@H](CCO)C[C@@H](O)[C@@H]2O)O1,-1.1,i,3,x,8,8,7.7,x,-0.2
COCC(=O)N1[C@H](C#N)[C@H](c2ccc(C#CCC3CCCC3)cc2)[C@H]1CO,6.0,i,x,x,-44,-70,-6.5,x,x
O=C(O)c1ccc(NS(=O)(=O)c2cccc3nsnc23)cc1,3.6,i,-6,6%,12,9,0.5,0.7,-2.1
Cc1ccc(-n2ccc(=O)c(C(=O)Nc3ccc(S(=O)(=O)N4CCOCC4)cc3)n2)cc1,-1.5,i,1,0%,4,-2,-7.3,0.66,0.9
CCOc1ccccc1NC(=O)CCC(=O)Nc1nnc(C2CCCCC2)s1,0.8,i,-4,-1%,6,14,-0.2,0.67,-0.1
CCc1ccc([C@@H]2CC=C(C(=O)O)CN2S(=O)(=O)c2ccc(C)cc2)cc1,1.3,i,5,x,-23*,-15*,-8.3*,x,5.7
COC(=O)c1ccccc1NC(=O)C(C)c1ccc([N+](=O)[O-])cc1 (centres undefined),5.7,i,-9,6%,x,x,x,0.7,-0.6

molecule,MLL AF4-AF9 inh,FGF22 binding,ALR H2O2 inh,Vif A3G,Ecoli rRNA inh,Ecoli rRNA inh OD600,Ecoli rRNA inh RFP,Ecoli growth,HNF4A DNA FP
COc1ccc(OC)c(C2C/C(=N/O)C(C)C(c3cc(OC)ccc3OC)N2)c1 (centres undefined),0.7,i,x,-2%,9,14,-2.8,x,3.2
CC(C)OCCCN1C(=O)c2[nH]nc(-c3ccccc3O)c2C1c1cccc(Cl)c1 (centres undefined),x,x,5,-4%,x,x,x,0.72,4.2
CCc1nnc(NC(=O)C2CCCN(C(=O)c3ccc(Cl)cc3)C2)s1 (centres undefined),-3.4,i,x,-2%,-11,-5,-0.4,0.66,0.3
CO[C@H]1CC[C@H]2CCOc3c(C#N)cccc3C(=O)N(C)[C@@H](C)C(=O)N(C)C[C@H]1O2,-14,i,x,x,2,14,1.3,x,x
C/C=C/C(=O)Nc1cccc(C2=NOC3(C2)C[C@@H](C(N)=O)N(C(=O)c2cc([N+](=O)[O-])cc([N+](=O)[O-])c2)C3)c1 (some centres undefined),1.5,i,-30,22%,2,1,-3.6,x,-1.1
COc1ccc(NC(=O)c2cc(S(=O)(=O)N3CCCCC3)ccc2N2CCCCC2)cn1,x,x,-65,1%&5%,x,x,x,0.68,0.2
Cc1cc(N2CCN(C)CC2)ccc1NC(=O)c1c2c(nc3ccccc13)CCN(Cc1ccccc1)C2,x,x,-1,x,x,x,x,0.72,2.5
CCOc1ccccc1/C=N/NC(=O)CSc1n[nH]c(=O)[nH]c1=O,-0.1,i,x,10%,21,13,3.6,x,2.8
O=C(c1ccco1)N(CCCN1CCOCC1)c1nc(-c2ccc(F)cc2)cs1,16,i,-12,-2%,-33*,-1.4*,9.3*,0.67,0.1
COc1ccc(-n2c(SCC(=O)NCC3CCCO3)nc3ccccc32)cc1 (centres undefined),x,x,-25,7%,x,x,x,0.69,0.4
CCCCc1nnc(NC(=O)CN(C)S(=O)(=O)c2ccc(C)cc2)s1,-2.3,i,-1,-1%,-5,-6,0.6,0.72,-1.9
CCOC(=O)Cc1csc(SCC(=O)Nc2ccc3[nH]c(=O)[nH]c3c2)n1,-0.2,i,-9,10%,9,4,2.9,0.67,5.2

Overlap with the part before: 6 compounds; new compounds follow.
molecule,MLL AF4-AF9 inh,FGF22 binding,ALR H2O2 inh,Vif A3G,Ecoli rRNA inh,Ecoli rRNA inh OD600,Ecoli rRNA inh RFP,Ecoli growth,HNF4A DNA FP
Cc1cc(N2CCN(C)CC2)ccc1NC(=O)c1c2c(nc3ccccc13)CCN(Cc1ccccc1)C2,x,x,-1,x,x,x,x,0.72,2.5
CCOc1ccccc1/C=N/NC(=O)CSc1n[nH]c(=O)[nH]c1=O,-0.1,i,x,10%,21,13,3.6,x,2.8
O=C(c1ccco1)N(CCCN1CCOCC1)c1nc(-c2ccc(F)cc2)cs1,16,i,-12,-2%,-33*,-1.4*,9.3*,0.67,0.1
COc1ccc(-n2c(SCC(=O)NCC3CCCO3)nc3ccccc32)cc1 (centres undefined),x,x,-25,7%,x,x,x,0.69,0.4
CCCCc1nnc(NC(=O)CN(C)S(=O)(=O)c2ccc(C)cc2)s1,-2.3,i,-1,-1%,-5,-6,0.6,0.72,-1.9
CCOC(=O)Cc1csc(SCC(=O)Nc2ccc3[nH]c(=O)[nH]c3c2)n1,-0.2,i,-9,10%,9,4,2.9,0.67,5.2
C[C@H](CO)N1C[C@H](C)[C@H](CN(C)C)Oc2cc(C#CC3(O)CCCC3)ccc2S1(=O)=O,-2.9,i,x,x,8,4,-1.2,x,x
NS(=O)(=O)c1ccc(CNS(=O)(=O)Cc2ccc(Cl)cc2)cc1,0.6,i,-2,x,12,10,-0.4,0.68,1.2
C[C@H]1CN([C@@H](C)CO)S(=O)(=O)c2ccc(C#CCN(C)C)cc2O[C@H]1CN(C)Cc1ccc2c(c1)OCO2,16,i,x,x,1,1,0.5,x,x
C[C@@H]1CN([C@H](C)CO)C(=O)Cc2cc(NS(=O)(=O)c3ccccc3)ccc2O[C@@H]1CN(C)C(=O)Nc1ccc(F)cc1,-1.2,i,x,x,-1,2,1.1,x,x
C[C@@H]1CCCCO[C@H](CN(C)Cc2ccc(C(F)(F)F)cc2)[C@@H](C)CN([C@@H](C)CO)C(=O)c2cc(NC(=O)c3ccccc3)ccc2O1,-2.6,i,x,x,-4,-4,6.8,x,x
O=C(Cn1nc(CNc2ccc(Cl)cc2)[n+]2c1CCCCC2)c1ccccc1,12,i,-18,-1%,-56,-81,-19,0.67,-4.5
Nc1ccc(C(=O)Nc2cccc(N)c2)cc1,-18,i,99*,6%,15,14,3.1,0.69,-3.5
Cc1nn(-c2ccccc2)c(N)c1C1(O)C(=O)N(C)c2ccccc21 (centres undefined),x,x,5,-1%,x,x,x,0.68,-1.8
CCOc1ccc(C2/C(=C(\O)c3ccc4c(c3)OCCO4)C(=O)C(=O)N2CCCn2ccnc2)cc1OC (centres undefined),-1.3,i,0,x,15,10,-0.4,0.68,1.1
CCn1cnc2cc(NCc3cccc(OC)c3O)ccc21,5.8,i,94*,3%,-4,9,5.7,0.64,4.1
O=C(O)c1cc(S(=O)(=O)NC23CC4CC(CC(C4)C2)C3)ccc1Cl,-13,i,-4,-9%,-1,1,-1.9,0.65,0.8
CCOC(=O)CSc1ncnc2c1cnn2-c1ccc(Cl)cc1,x,x,2,-14%,x,x,x,0.72,0.0

molecule,MLL AF4-AF9 inh,FGF22 binding,ALR H2O2 inh,Vif A3G,Ecoli rRNA inh,Ecoli rRNA inh OD600,Ecoli rRNA inh RFP,Ecoli growth,HNF4A DNA FP
O=C1CC(CCC(=O)NC2CC2)c2ccccc2N1 (centres undefined),x,x,-12,7%,x,x,x,0.74,-3.5
COc1ccc(-c2sc3ccc(N4CCOCC4)cc3c2-c2ccc(OC)c(F)c2)cc1,9.2,i,-3,x,17,13,-1.2,0.69,-0.8
COc1ccc(/C=C2\N=C(C)OC2=O)cc1OC(C)=O,-1.6,i,19,7%,10,12,2.1,0.7,4.2
COc1ccc(S(=O)(=O)N2CCN(C(=O)c3ccco3)CC2)c(C)c1C,-2.5,i,0,-1%,-12,-3,0.4,0.71,-3.0
CCc1nn(CC(=O)Nc2cc(C)ccc2C)c(=N)s1,1.0,i,-6,x,11,1,0.0,0.71,-0.2
O=C(C[C@@H]1C/C=C\C[C@H](NC(=O)OCC2c3ccccc3-c3ccccc32)C(=O)OC[C@@H]2CCCN2C1=O)N[C@@H](CO)Cc1ccccc1,-1.9,i,-3,x,0,-4,-15,x,3.0
CN1CCN(C(=O)C[C@@H]2C[C@H]3c4cc(NC(=O)NC5CCCC5)ccc4O[C@H]3[C@@H](CO)O2)CC1,-0.9,i,x,x,1,3,-4.0,x,x

A portion of the library (hit frequency here may not be typical).
